Screens as filed in PubChem.
Choline anaer gr: inhibitors of anaerobic choline-dependent gram-negative bacterial growth | 55,000 tested, 0.2% active | AID 1963822 | Gram-negative bacterium anaerobic choline minimal medium, absorbance growth; hits give low values; many inactives read as strong as hits in the columns shown | calls only;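 active means growth z-score on choline under -2 at 7 or 20 h with little or no fall on glycerol, limits in tiers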;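 further: stock transfer was 300 nL into about 50 µL; the organism is E. coli; final concentration not given here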
Choline anaer gr early: recorded beside Choline anaer gr, whose call it bears; z-score; measured here: choline growth z-score, timepoint 1;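 score of optical density at 7 h as mean of two plates; lower means less growth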
The depositor's hits bear a star; i = inactive; + = active, no number; & = joins results of further samples. Only part of the results is shown. The share of hits here may be higher or lower than overall.

Screens in order: Choline anaer gr, Choline anaer gr early
Clc1ccc(CO/N=C(\Cn2ccnc2)c2ccc(Cl)cc2Cl)c(Cl)c1
  i, 0.41&-0.19
C=C1[C@@H](C)[C@H]2[C@H](Cc3ccccc3)NC(=O)C23[C@H](OC(C)=O)/C=C/[C@](C)(O)C(=O)[C@@H](C)C/C=C/[C@H]3[C@@H]1O (stereo partly specified)
  i, -0.3
CCCCC/C=C\C/C=C\C/C=C\C/C=C\CCCC(N)=O
  i, 0.48
Oc1cc(Cl)ccc1Oc1ccc(Cl)cc1Cl
  i, -2.5
Nc1ccncc1
  i, -0.19&1.1
CNC(C)(C)Cc1ccccc1
  i, -0.5
Oc1ccc2c3c1O[C@H]1c4oc5ccccc5c4C[C@@]4(O)C(C2)N(CC2CC2)CCC314 (stereo partly specified)
  i, -0.47
c1ccc2c(c1)Nc1ccccc1S2
  i, 0.67&0.23
C=CC[C@]1(O)CC[C@H]2[C@@H]3CCC4=CC(=O)CCC4=C3C=C[C@@]21C
  i, 0.46
Cc1cc(O)ccc1Cl
  i, 0.5
Cc1nnc2n1-c1sc(CCC(=O)N3CCOCC3)cc1C(c1ccccc1Cl)=NC2
  i, 0.75
CN1[C@@H]2CC[C@H]1CC(OC1c3ccccc3CCc3ccccc31)C2 (stereo partly specified)
  i, 0.19
Cc1o[nH]c(=O)c1CC(N)C(=O)O (stereo unspecified)
  i, 0.68&-0.17&0.21
Cc1cccc(NC(=O)N2Cc3ccccc3-n3cccc3C2c2ccc(Cl)cc2)c1 (stereo unspecified)
  i, 0.87
N#CC(C#N)=Cc1ccc(O)cc1
  i, -2.8
COc1ccc(-n2c(/C=C\c3cccc(Br)c3)nc3ccccc3c2=O)cc1
  i, 1.2
CC(O)CN1CCN(CC(=O)[O-])CCN(CC(=O)[O-])CCN(CC(=O)[O-])CC1.[Gd+3] (stereo unspecified)
  i, 0.26
CC(C)n1[nH]c(=O)c2c1NC(=O)CSC2c1ccc(Br)cc1 (stereo unspecified)
  i, -1.3
O=C1CSC(c2ccc(Cl)cc2)c2c(-c3ccccc3)nn(-c3ccccc3)c2N1 (stereo unspecified)
  i, -0.14
COc1ccc2c(c1)C1(CCN(S(=O)(=O)c3ccc(F)c(C)c3)C1)C(=O)N2C (stereo unspecified)
  i, 0.11
Cc1cc(C)cc(C(=O)OC2CC3CCC(C2)N3C)c1 (stereo unspecified)
  i, 0.11
CN1CCN(C(=O)O[C@H]2c3nccnc3C(=O)N2c2ccc(Cl)cn2)CC1
  i, -0.18
COC(=O)c1sc2nc3c(cc2c1N)CN(C)CC3
  i, 0.39
Cc1cccc(OCC(=O)N2CCN(Cc3cc(=O)n4nc(-c5ccccc5)sc4n3)CC2)c1
  i, 0
OCc1cnc[nH]1
  i, 0.98
CCOC(=O)Cc1ccc(NC(=O)N2Cc3ccccc3-n3cccc3C2c2cccc(C)c2)cc1 (stereo unspecified)
  i, 0.1
CC1OC(O[C@H]2C[C@@H](O)[C@]3(CO)[C@H]4[C@H](O)C[C@]5(C)[C@@H](C6=CC(=O)OC6)CC[C@]5(O)[C@@H]4CC[C@]3(O)C2)C(O)C(O)C1O (stereo partly specified)
  i, 0.53
COc1ccc2c(C(O)CN3CCC(C)CC3)c[nH]c2c1 (stereo unspecified)
  i, -0.16
COC1CCC2NC(C(=O)c3ccccc3)CC2C1 (stereo unspecified)
  i, -1.2
CCCc1nc(C)cc(N2CCN(C)CC2)n1
  i, -0.99
CC(C)NCC(O)c1ccccc1Cl (stereo unspecified)
  i, 0.62
CCNCC(O)c1cccc(O)c1 (stereo unspecified)
  i, 0.51
O=C(NCc1cccnc1)c1cc2cccnc2n(Cc2ccc(F)cc2)c1=O
  i, -0.87
COc1ccc(OC)c(NC(=O)c2cccn(Cc3cccc(F)c3)c2=O)c1
  i, 0.76
COc1ccc(OCC(=O)N2CCN(CC(=O)Nc3nnc(-c4ccccc4)s3)CC2)cc1
  i, 0.42
CC(C)[C@]12O[C@H]1[C@@H]1O[C@]13[C@]1(O[C@H]1C[C@H]1C4=C(CC[C@@]13C)C(=O)OC4)[C@@H]2O
  i, -0.79
Cc1cc2c(cc1S(=O)(=O)N1CC3CC(C1)c1cccc(=O)n1C3)OCC(=O)N2 (stereo unspecified)
  i, -0.49
NC(=O)c1ccccc1NC(=O)c1cccn(Cc2ccc(Br)cc2)c1=O
  i, 0.05
NC1CCc2cc(O)c(O)cc2C1 (stereo unspecified)
  i, 0.26&0.25
C[N+](C)(C)CCOC(=O)CBr
  i, 1.1

Entries of single compounds from above. Order of values: Choline anaer gr, Choline anaer gr early
O=C1CSC(c2ccc(Cl)cc2)c2c(-c3ccccc3)nn(-c3ccccc3)c2N1 (stereo unspecified) is entered as i, -0.14
Cc1cccc(NC(=O)N2Cc3ccccc3-n3cccc3C2c2ccc(Cl)cc2)c1 (stereo unspecified) is entered as i, 0.87

Continuation.
Screens in order: Choline anaer gr, Choline anaer gr early
CN(C)c1ccc(C2SCC(=O)Nc3c2c(-c2ccccc2)nn3-c2ccccc2)cc1 (stereo unspecified)
  i, -0.19
CCN1C[C@@]2(COC)C3[C@@H](OC)[C@H]4[C@H]1C3([C@@H]1C[C@@]3(O)[C@H](OC(=O)c5ccccc5)[C@@H]1[C@]4(OC(C)=O)[C@@H](O)[C@@H]3OC)[C@H](OC)C[C@H]2O
  i, -0.29
CC12CN3CC(C)(CN(C1)C3c1ccccn1)C2O (stereo unspecified)
  i, 1.2
CS(=O)(=O)c1ccc(N2C=C(C#N)S(=O)(=O)c3ccccc32)cc1
  i, -1.1
CC(C)CC(N)C1(c2ccc(Cl)cc2)CCC1 (stereo unspecified)
  i, -0.41
CCC(C)(C)O
  i, 0.55
CNCC(=O)c1ccc(O)c(O)c1
  i, 0.18&0.24
CCOC(=O)C1(c2ccccc2)CCN(C(=O)c2c(C)oc3ccc(OC)cc23)CC1
  i, -1.3
Cc1ccc2[nH]cc(C(O)CN3CCC(C)CC3)c2c1 (stereo unspecified)
  i, -1
COc1ccc(C2c3cccn3-c3ccccc3CN2C(=O)Nc2cc(C)ccc2C)cc1 (stereo unspecified)
  i, -0.73
COc1ccc(C(=O)c2c(C)n(CCN3CCOCC3)c3ccccc23)cc1
  i, 0.71
CN1C2CCC1CC(OC(=O)c1cc(Cl)cc(Cl)c1)C2 (stereo unspecified)
  i, -0.59&-1.5
O=C(O)CCCc1ccc(N(CCCl)CCCl)cc1
  i, 0.66&-0.2
O=C(NCc1ccc2c(c1)OCO2)c1cc2cccnc2n(Cc2ccccc2)c1=O
  i, -0.39
Cc1nnc2ccc(-c3cccc(C(F)(F)F)c3)nn12
  i, 0.41
CNc1ccc2oc(C[C@H]3O[C@@]4(CC[C@H]3C)O[C@H]([C@H](C)C(=O)c3ccc[nH]3)[C@H](C)C[C@H]4C)nc2c1C(=O)O
  i, -0.55
CCN1C[C@@]2(COC)C3[C@@H](OC)C4[C@@H]1C3([C@@H]1C[C@@]3(O)[C@H](OC(=O)c5ccccc5)[C@@H]1[C@]4(OC(C)=O)[C@@H](O)[C@@H]3OC)[C@H](OC)C[C@H]2O
  i, 0.76
c1ccc(CC(c2ccccc2)N2CCCCC2)cc1 (stereo unspecified)
  i, 0.46
COc1ccc2c(c1)C1(CCN(C(=O)NCC(C)C)C1)C(=O)N2C (stereo unspecified)
  i, 0.57
c1cc(Cc2cnc[nH]2)ccn1
  i, 0.51
Cc1ccccc1OCC(=O)N1CCN(Cc2cc(=O)n3nc(-c4ccccc4)sc3n2)CC1
  i, -0.26
CCCCC/C=C\C/C=C\CCCCCCCC(=O)NCCO
  i, 0.56
CCC(=O)N1N=C2C3CCN(CC3)[C@@H]2[C@@H]1c1cc(OC)ccc1OC
  i, 0.26
O=C1C[C@@H]2OCC=C3CN4CC[C@]56c7ccccc7N1[C@H]5[C@H]2[C@H]3C[C@H]46
  +, -4*
COc1ccc2c(c1)C1(CCN(C(=O)NCC(C)C)C1)C(=O)N2 (stereo unspecified)
  i, 0.85
O=C(NCc1ccccn1)c1cc2cccnc2n(Cc2ccccc2)c1=O
  i, 0.78
CCCN[C@@H]1CCc2c(OC)cccc2[C@@H]1C
  i, -0.34
Cc1nc2nc(-c3ccc(C(C)(C)C)cc3)nn2c(C)c1CC(=O)N1CCN(CCO)CC1
  i, -0.17
NC(=O)c1ccc(OCC(O)CN2CC=C(c3ccc(F)cc3)CC2)cc1 (stereo unspecified)
  i, -0.64
COc1ccc2c(c1)C1(CCN(S(=O)(=O)c3ccc(OC)c(OC)c3)C1)C(=O)N2 (stereo unspecified)
  i, 0.39
CC(=O)NC1CCSC1=O (stereo unspecified)
  i, -0.21
COP(=S)(OC)Oc1ccc(SC)c(C)c1
  i, 0.35
O=C(CN1CCN(C(=O)COc2ccc(Cl)cc2)CC1)Nc1nnc(-c2ccccc2)s1
  i, 1.2
CC(C)c1cccc(C(C)C)c1O
  i, -0.3&0.39&1.1
CCN(CC)c1ncnc2c1ncn2[C@@H]1O[C@H](COP(=O)(O)OP(=O)(O)C(Br)(Br)P(=O)(O)O)[C@@H](O)[C@H]1O
  i, -0.01
CC(C)n1[nH]c(=O)c2c1NC(=O)CSC2c1ccccc1 (stereo unspecified)
  i, 0.99
CCOc1ccc(NC(=O)N2CCC3(C2)C(=O)N(C)c2ccc(OC)cc23)cc1 (stereo unspecified)
  i, 0.11
O=C(CN1CCN(C(=O)COc2cccc(F)c2)CC1)Nc1nnc(-c2ccccc2)s1
  i, -1
Cc1nnc(NC(=O)c2cccn(Cc3ccccc3)c2=O)s1
  i, -0.76
C[C@H](N)[C@H](O)c1ccccc1
  i, -0.55

(further entries)
structure	Choline anaer gr	Choline anaer gr early
CC(=O)c1c(O)c(C)c(O)c(Cc2c(O)c3c(c(C(=O)/C=C/c4ccccc4)c2O)OC(C)(C)C=C3)c1O	i	0.06&-0.61
O=c1ccc2[nH]cc(C3=CCNCC3)c2[nH]1	i	-0.68&-0.03
CCCCC/C=C\C/C=C\C/C=C\C/C=C\CCCCCC(=O)NCCO	i	0.07
C#C[C@]1(O)CC[C@H]2[C@@H]3CCC4=CC(=O)CCC4=C3C=C[C@@]21CC	i	0.86&-0.29
Cc1ccc(C2c3cccn3-c3ccccc3CN2C(=O)C(C)C)cc1 (stereo unspecified)	i	-0.82
C=CCN1C[C@H](C)N([C@H](c2ccc(C(=O)N(CC)CC)cc2)c2cccc(OC)c2)C[C@H]1C	i	0.94
Fc1ccc(C(OCCN2CCN(C/C=C/c3ccccc3)CC2)c2ccc(F)cc2)cc1	i	0.54
Cc1ccc(NC(=O)N2Cc3ccccc3-n3cccc3C2c2ccc(Cl)cc2)cc1 (stereo unspecified)	i	-1
NC=Nc1ccc2[nH]c3c(c2c1)C[C@@]1(O)C2Cc4ccc(O)c5c4[C@@]1(CCN2CC1CC1)[C@H]3O5	i	0.61
CN(C)c1ccc(/C=C2\CCCN=C2c2cccnc2)cc1	i	0.1
COc1ccc(C2N3CCCN23)c(OC)c1 (stereo unspecified)	i	-0.81
O=C(Nc1ccccc1)Nc1nc(CC(=O)N2CCN(Cc3ccccc3)CC2)cs1	i	-2.2
O=C1/C(=C/c2ccccc2)C[C@@]2(O)C3Cc4ccc(O)c5c4[C@@]2(CCN3CC2CC2)[C@H]1O5	i	0.03
CC(C)NC(=O)N1Cc2ccccc2-n2cccc2C1C (stereo unspecified)	i	-0.1
COc1ccc(C(CN(C)C)C2(O)CCCCC2)cc1 (stereo unspecified)	i	0.2&0.49&0.71&0.83
O=C(NCC1CCCO1)c1cc2cccnc2n(Cc2ccccc2)c1=O (stereo unspecified)	i	-1.2
CCN1CCN(C(=O)Cc2c(C)nc3nc(-c4ccc(C(C)(C)C)cc4)nn3c2C)CC1	i	-0.02
C#CCOC(=O)C1=CCCN(C)C1	i	0.91&0.44
CC(C)[C@]1(O)[C@@H](OC(=O)c2ccc[nH]2)[C@@]2(O)[C@@]3(C)C[C@]4(O)O[C@@]5([C@H](O)[C@@H](C)CC[C@]35O)[C@@]2(O)C41C	i	0.6
CC(N)c1cccc(Cl)c1Cl (stereo unspecified)	i	-0.71
C[C@]12CCC3C(CC[C@H]4C[C@H](O)CC[C@]34C)C1CC[C@@H]2C(=O)CO (stereo partly specified)	i	0.17
O=c1[nH]c(=O)n(Cl)c(=O)n1Cl	i	0.18
O=C(Oc1ccc([N+](=O)[O-])cc1)N1CCC(C(O)(c2ccc3c(c2)OCO3)c2ccc3c(c2)OCO3)CC1	i	0.6&0.84
c1ccc(CCCCN2CCC(c3ccccc3)CC2)cc1	i	-3
COc1ccc2c(c1)c(CCN1CCOCC1)c(C)n2C(=O)c1cccc(Cl)c1Cl	i	0.95
CCSc1nnc(C2CCNCC2)o1	i	0.16
NCCc1c[nH]c2ccccc12	i	-0.07
O=C1N(c2cccc(Cl)c2)C(c2cccnc2)N2CCCN12 (stereo unspecified)	i	-0.44
NNC(=O)c1ccc(O)cc1	i	0.31
Cc1ncc(CN2CC=C(c3ccccc3)CC2)c(N)n1	i	-0.47
Cc1cc(NC(=O)c2cccn(Cc3ccccc3)c2=O)no1	i	-0.94

Four of the compounds above, field by field.
smiles: C=C1[C@@H](C)[C@H]2[C@H](Cc3ccccc3)NC(=O)C23[C@H](OC(C)=O)/C=C/[C@](C)(O)C(=O)[C@@H](C)C/C=C/[C@H]3[C@@H]1O (stereo partly specified)
  Choline anaer gr: i	Choline anaer gr early: -0.3

smiles: CNCC(=O)c1ccc(O)c(O)c1
  Choline anaer gr: i	Choline anaer gr early: 0.18&0.24

smiles: CCCCC/C=C\C/C=C\C/C=C\C/C=C\CCCCCC(=O)NCCO
  Choline anaer gr: i	Choline anaer gr early: 0.07

smiles: CN1CCN(C(=O)O[C@H]2c3nccnc3C(=O)N2c2ccc(Cl)cn2)CC1
  Choline anaer gr: i	Choline anaer gr early: -0.18
